# Screening results as filed in PubChem BioAssay.
# VDR inh – Inhibitors of the vitamin D receptor (VDR): qHTS | Vitamin D3 receptor (Homo sapiens), P11473 | VDR-SRC2-3 peptide fluorescence polarization, 2 h | Potency, µM, for inactives: max response, negative = inhibition, actives largely listed as inhibitors | actives 0.93% (n = 400,000); active = well fitted inhibition curve with a large enough effect; inconclusive = small, poorly fitted or top-dose-only effect, or another doubt; inactive = no such curve, though single readings can be large or run the other way; also: series mostly up to about 120 µM
# Target sequence (P11473 whole entry, looked up): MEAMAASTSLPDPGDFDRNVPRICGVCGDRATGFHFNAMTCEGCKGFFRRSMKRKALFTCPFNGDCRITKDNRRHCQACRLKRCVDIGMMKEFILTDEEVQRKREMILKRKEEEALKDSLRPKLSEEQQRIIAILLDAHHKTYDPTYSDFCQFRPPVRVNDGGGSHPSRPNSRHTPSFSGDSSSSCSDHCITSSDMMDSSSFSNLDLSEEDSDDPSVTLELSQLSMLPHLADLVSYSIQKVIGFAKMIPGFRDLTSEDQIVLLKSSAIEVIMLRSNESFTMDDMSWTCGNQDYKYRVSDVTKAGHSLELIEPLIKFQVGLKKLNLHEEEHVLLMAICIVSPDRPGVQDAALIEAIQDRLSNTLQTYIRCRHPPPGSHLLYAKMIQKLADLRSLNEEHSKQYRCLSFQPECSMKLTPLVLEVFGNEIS
#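 Measured by FP: displacement of SRC2-3 coactivator peptide from VDR by library compounds, following a two-hour ambient incubation.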
# Numbers without * were called inactive; ? = inconclusive; & = joins results of further samples; [ ] = remark or other dose. % is scaled to controls: 0 for no effect and ±100 for the full control effect; potency is read from the fitted curve at half-maximal effect.
SMILES	VDR inh
CCOC(=O)NC(=O)c1cn(CCN(C)C)c(=O)[nH]c1=O	-16%
Cc1ccc(Oc2ccc(C(=O)NC3CCSC3=O)cn2)cc1 (centres undefined)	-8%
CSc1cccc(NC(=O)CCCNC(=O)c2ccc(Cl)cc2)c1	19%
Cc1nn(Cc2ccccc2)c(Cl)c1/C=C1\NC(=S)NC1=O	-21%
CC(C)NC(=O)C(=O)NCc1ccccn1	6%
CCOc1ccc(S(=O)(=O)Nc2ccccc2SC)c2cccnc12	10%
Cc1ccc(NS(=O)(=O)c2ccc3c(c2)CCC(=O)N3)cc1C	2%
CCOc1ccc(N(C(=O)Cn2nnc3ccccc32)C(C(=O)NC(C)(C)CC)c2cccn2C)cc1 (centres undefined)	-2%
CCOC(=O)C1CCCN(CCCc2ccccc2)C1 (centres undefined)	-10%&-11%
Cc1ccc(C(=O)NNC(=O)c2n[nH]c(=O)c3ccccc23)cc1C	-12%
Cc1cccc(OC(=O)NCCOC(=O)N(O)c2ccc(Cl)cc2)c1	-4%
CCCCN1CC[C@H]2C=CC[C@@H](C(=O)Nc3ccc(OC)cc3)[C@H]2C1=O	-2%
CCOc1ccc(C(=O)CC(C(=O)O)N2CCCCC2)cc1 (centres undefined)	40µM*
Cc1cccc(OCC(=O)N/N=C/c2ccc3c(c2)OCO3)c1	12%
O=c1oc(-c2cccs2)nc2c1cnn2-c1ccccc1	1%
COc1cc(/C=N/Nc2nc(C)cc(=O)[nH]2)ccc1O	-2%
Cc1cccc(NC(=O)CSc2n[nH]c(-c3cccnc3)n2)c1	-9%
O=C(CCNC(=O)c1ccc(Br)cc1)Nc1ccc(S(=O)(=O)N2CCCCC2)cc1	-11%
COc1ccc(C)cc1N(CC(=O)Nc1ccc2c(c1)OCCO2)S(C)(=O)=O	4%
C[C@H](CO)N1C[C@H](C)[C@@H](CN(C)S(=O)(=O)c2cn(C)cn2)Oc2c(NC(=O)Nc3ccc4c(c3)OCO4)cccc2C1=O	-5%
CC1=CC(c2ccccc2)=Nc2ccc(C)cc2N1	-6%
Clc1ccccc1-c1nnc(CNC2CC2)o1	4%
CCCCCOC(=O)CC(C(=O)OCCCCC)N1CCCCC1 (centres undefined)	36%[activator]
Cc1cccc2c(-c3ccccc3)cc(=O)[nH]c12	-12%
Clc1ccc(-c2ccnc3nc(N4CCOCC4)nn23)c(Cl)c1	25%
Cc1cc(NCc2cccnc2)no1	2%
Cc1cnc(C(=O)O)c[n+]1[O-]	6%&-2%
Cc1c(C(=O)Nc2ccc(F)c(Cl)c2)oc2ccc(S(=O)(=O)N(C)C3CCCCC3)cc12	18%
Cc1nonc1NC(=O)c1oc2ccc(F)cc2c1C	12%
Cc1cccc(N2CCN(S(=O)(=O)c3ccc4c(c3)CC(C)N4C(=O)C3CC3)CC2)c1C (centres undefined)	-10%
Cc1ccc(C)c(Cn2c3ccccc3c3cnn(CC(=O)NC(C)c4ccccc4)c(=O)c32)c1 (centres undefined)	12%
O=S(=O)(NCCSc1ccc(Cl)cc1)c1ccc(F)cc1	9%
COc1ccc(N=C2SCC(c3ccc(C)cc3)=NN2CCO)cc1	0%
CS(=O)(=O)N(CCc1ccccc1)CC(=O)N1CCc2ccccc2C1	9%
CCN(CC)S(=O)(=O)c1ccc(C)c(NC(=O)Cc2ccc(S(=O)(=O)N3CCOCC3)s2)c1	-11%
O=C(Cn1c(C(F)(F)F)nc2ccccc21)Nc1ccccc1N1CCOCC1	1%
O=C(Cn1c(=O)c2ccccc2n(CC(=O)N2CCCCC2)c1=O)N1CCCCC1	-16%
COc1cc(OC)c(NC(=O)COc2ccccc2-c2nnc(-c3ccccc3)o2)cc1Cl	1%
CN1C(=S)SC(/[N+]([O-])=C\c2ccccc2)C1(C)C (centres undefined)	-5%
Cc1cc(O)c(NC(=O)c2cc([N+](=O)[O-])ccc2Cl)cc1C	1%
CCCCN(CC)C(=O)c1cc2cc3ccc(Cl)cc3nc2o1	-13%
COc1ccc(NS(=O)(=O)c2ccc(NC(=O)c3ccc(CN4CCOCC4)cc3)cc2)cc1	12%
COc1ccc(N2CCN(C(=O)C3CCN(S(=O)(=O)c4ccc(F)cc4)CC3)CC2)cc1	-1%
COc1ccc(CCC(C)NCCc2ccc(Cl)cc2Cl)cc1 (centres undefined)	2%
Cc1ccc(NC(=O)/C(C#N)=C\c2ccc(Cl)cc2Cl)cc1C	-21%
CCOC(=O)CSc1nc2c(sc(=S)n2-c2ccccc2OC)c(=O)n1-c1ccccc1OC	-9%
O=C(c1csnn1)N1CCC2(CCCN(Cc3ccccc3)C2)CC1	2%
Cc1ccc(Cl)cc1N1CCN(C(=O)CN2C(=O)COc3ccc(S(=O)(=O)N4CCCCCC4)cc32)CC1	1%
O=C(Cn1cnc2cc([N+](=O)[O-])ccc2c1=O)Nc1ccc(N2CCOCC2)cc1	0%
N=c1c(C(=O)NCCc2ccccc2)cc2c(=O)n3ccccc3nc2n1Cc1ccco1	-9%
CCOC(=O)c1nn(-c2ccc(Cl)cc2)c2nnc(Cc3ccccc3)c(=O)n12	-12%
Cc1nc(NC(=O)COC(=O)[C@@H](NC(=O)c2ccco2)C(C)C)c(Cl)cc1Cl	?
COc1ccc(NC(=O)Cn2c(=O)nc(-c3ccccc3)c3ccccc32)cc1OC	5%
COc1ccccc1-c1nc(COc2ccc(Cl)cc2Cl)no1	5%
COc1ccc(NC(=O)CN2CCC(C(N)=O)(N3CCCCC3)CC2)c(OC)c1	-9%
O=C(CCN1CCCCC1)N/N=C/c1ccc(Br)cc1	9%

# Next results:
SMILES	VDR inh
CCCCCCCCCCCCS[C@H]1CS(=O)(=O)C[C@@H]1O	-6%
COc1ccccc1C(=O)C1CCCN(C(=O)c2ccccc2C(C)=O)C1 (centres undefined)	4%
Cc1cc(C(=O)C(C)Cl)c(C)n1Cc1ccco1 (centres undefined)	-10%
Cc1cccc(/C=C/C(=O)c2cc(Br)ccc(=O)c2O)c1	16µM*
CC(=O)c1ccc(N2CCN(C(=O)c3cc(-c4ccncc4)nc4ccc(Cl)cc34)CC2)cc1	-11%
CCOc1ccc(NC(=O)Nc2cccc(C)n2)cc1	1%&-20%
COc1ccc(Cn2nnnc2C(C(C)C)N2CCc3ccccc32)cc1 (centres undefined)	-8%
Cc1ccc(NC(=O)CCc2c(C)nn(-c3ccc(N4CCOCC4)nn3)c2C)cc1C	-19%
NC(=O)C1=NOC(CNc2ncc(C(F)(F)F)cc2Cl)C1 (centres undefined)	16%
Nc1cccc(-n2nncc2-c2ccccc2)c1	18%
CC(=O)Nc1cc2c3c(cccc3c1)-c1ccccc1-2	-5%
O=C(c1cccs1)N(C(=O)c1cccs1)c1ccc(Br)cn1	14%
Cc1cccc(NC(=S)NNC(=O)c2csc(C(C)C)c2)c1	2%
Cc1cc(C)c(OCC(=O)N(Cc2cccc(F)c2)Cc2ccco2)c(C)c1	8%
Cc1onc(-c2c(F)cccc2Cl)c1C(=O)Nc1cccc(S(=O)(=O)N2CCCCC2)c1	-4%
CC1(C)Cc2ccccc2-c2nnc(-c3cccnc3)n21	-12%
O=C(CCN1C(=O)S/C(=C\c2ccccc2)C1=O)N1CCCCC1	-9%
CCn1cc([N+](=O)[O-])c(=O)c2cc(F)c(N3CCOCC3)cc21	8%
COc1ccccc1S(=O)Cc1ccc(C(=O)O)o1 (centres undefined)	-8%
COc1cc(NC(=O)C/C(C)=N/NC(=O)Cc2ccc(Cl)cc2)c(OC)cc1Cl	-23%
O=C(Nc1ccc2c(c1)OCCO2)C1CC(O)CN1C(=O)Nc1ccccc1 (centres undefined)	-7%
Cc1cc(C(F)F)n2ncc(C(=O)N3CCC(C(N)=O)CC3)c2n1	-6%
CCOc1ccc(Oc2c(/C=N/NC(N)=O)c(C)nn2-c2ccccc2)cc1	3%
Cn1cc(CNCCN2CCCCC2=O)c(-c2cccc(Cl)c2)n1	0%
COc1ccc(-n2c(-c3ccc(Br)cc3)nc(=S)c3c2CCCC3)cc1	-13%
CCc1cc(C(=O)NNC(=S)Nc2cc(C)ccc2C)cs1	-2%
Cc1nc2ccccn2c1-c1csc(Nc2ccc(C(=O)O)cc2)n1	19%
CCOCCCNC(=O)c1ccc(-c2nc(CS(=O)(=O)c3ccccc3)c(C)o2)cc1	6%
C/C(=N\O)C(=O)NCCN(C)C	-3%
COc1cc(C(=O)OCC(=O)NC(=O)c2cccn2C)ccc1OC(F)F	4%
COc1ccc(N(CN2C(=O)C3C4C=CC(C4)C3C2=O)C(=O)c2ccco2)cc1 (centres undefined)	3%
CC1Cc2ccccc2N1Cc1cc(=O)c(OCC(=O)NCCc2ccccc2)co1 (centres undefined)	-19%
O=C(Cc1ccccc1)NCC(=O)OCC(=O)c1cccs1	15%
CCOc1ccc(S(=O)(=O)NCC(=O)OCc2nnc(-c3ccccc3)o2)cc1	-12%
O=C(/C=C/c1ccccc1)NC(=S)Nc1ccccc1	-12%
Cc1c(NC(=O)COc2ccc3ccc(=O)oc3c2)c(=O)n(-c2ccccc2)n1C	4%
CN(C)CCN(Cc1ccccc1)S(=O)(=O)c1ccc(-c2cc(C(F)(F)F)on2)s1	12%
C=CCn1cc(-c2ccc(Cl)cc2)cc(C#N)c1=O	-20%
CCS(=O)(=O)N1CCN(C(=O)C(c2ccccc2)c2ccccc2)CC1	11%
O=C(Nc1cccc(-c2cnc3ccccc3n2)c1)C1CC(=O)N(c2ccccc2)C1 (centres undefined)	-1%
Cc1cc(C)cc(NC(=O)C2CCN(c3nnc(-n4c(C)ccc4C)s3)CC2)c1	3%
COc1ccc(CCNC(=O)c2ccc(S(=O)(=O)N3CCCCC3)cc2)cc1	-10%
CCCN(CC(=O)Nc1ccccc1C)C(=O)CSc1ccccc1C	0%
Cc1ccc(Nc2c(-c3cccs3)nc3nc(C)cc(C)n23)cc1	-2%
Cc1ccc(NC(=O)CCN2C(=O)c3ccccc3C2=O)c(C)c1	?
FC(F)(F)c1cc(-c2ccco2)nc(-n2cnc3ccccc32)n1	-8%
COCCNC(=O)c1ccc(CS(=O)(=O)c2ccc(Cl)cc2)o1	7%
COc1cccc(CNC(=O)c2cc(S(=O)(=O)N3CCOCC3)ccc2N2CCCC2)c1	-7%

# Some of the entries so far, field by field.
Cc1ccc(NC(=O)CCN2C(=O)c3ccccc3C2=O)c(C)c1
  VDR inh = ?

Cc1ccc(Nc2c(-c3cccs3)nc3nc(C)cc(C)n23)cc1
  VDR inh = -2%

# (more compounds)
SMILES	VDR inh
COc1cccc(CNC(=O)C(=O)NCC(c2cccs2)S(=O)(=O)c2cccs2)c1 (centres undefined)	19%
COc1cccc(N2CCN(S(=O)(=O)c3cccc4nsnc34)CC2)c1	-18%
Cc1cc(=O)nc2c3ccccc3n(C(C)C(=O)Nc3cc(F)ccc3F)n12 (centres undefined)	-1%
CC(C)CCn1c(=O)c2ccccc2n2c(CN3CCCC3)nnc12	20%
O=C(NC1CCCC1)C(c1ccncc1)N(C(=O)c1csnn1)c1ccc(F)c(Cl)c1 (centres undefined)	-5%
O=C(Oc1ccc2ccc(=O)oc2c1)C1CCCCC1	-4%
Cc1ccc(C)c(-n2c(SCC(=O)N3CCCC3)nnc2-c2ccccn2)c1	23%
O=C(NCCN1CCN(C(=O)NC2CCCCC2)CC1)NC1CCCCC1	7%
Cc1c(Cl)c([N+](=O)[O-])nn1CCCC(=O)Nc1cccnc1	-13%
O=C(CSC1=Nc2ccccc2C2=NC(CCC(=O)NC3CCCCC3)C(=O)N12)Nc1cccc(C(F)(F)F)c1 (centres undefined)	-2%
COc1ccccc1OCCSc1nc(N)cc(N)n1	-11%
CCn1c(SCC(=O)NNC(=O)c2ccco2)nnc1-c1ccco1	0%
Cn1c(N)c(C(=O)COC(=O)c2ccc(OC(F)F)cc2)c(=O)n(C)c1=O	-7%
COc1ccc2cc3cc(C(=O)N4CCN(c5ccccc5F)CC4)oc3nc2c1	-22%
Cn1cc(S(=O)(=O)N2CCC3(CC2)OCCO3)c(=O)n(C)c1=O	-2%
O=C(NC1=NCCS1)C1CC(=O)N(c2ccccc2)C1 (centres undefined)	-3%
CC1CCN(S(=O)(=O)c2ccc3c(c2)N(CC(=O)NCCCN2CC(C)CC(C)C2)C(=O)CS3)CC1 (centres undefined)	11%
Cn1cc(C(=O)NCCc2ccc(Cl)cc2)c(=O)c2cc(S(=O)(=O)N3CCOCC3)ccc21	-4%
COc1cccc2c1Oc1ncccc1N(c1ccc(C(=O)NCc3cccc(C)c3)s1)C2	2%
COC(=O)C1(C(C[N+](=O)[O-])c2ccco2)C(=O)NCC1c1ccccc1 (centres undefined)	9%
O=C(c1cc(-c2ccccc2O)on1)N1CCOCC1	12%
Cc1c([N+](=O)[O-])cc(S(=O)(=O)Nc2ccc(-c3ccc(N4CCCC4)nn3)cc2)cc1[N+](=O)[O-]	-17%
C/C(=N\N=C1\NC(=O)C(CC(=O)NCc2ccccc2)S1)C(C)C (centres undefined)	0%
Cc1c(C(=O)O)[nH]c2c1C(=O)CC(c1ccc(C(C)(C)C)cc1)C2 (centres undefined)	12%

# Some values from above:
# VDR inh, Cc1c(C(=O)Nc2ccc(F)c(Cl)c2)oc2ccc(S(=O)(=O)N(C)C3CCCCC3)cc12 is entered as 18%
# VDR inh, COC(=O)C1(C(C[N+](=O)[O-])c2ccco2)C(=O)NCC1c1ccccc1 (centres undefined) is entered as 9%
# VDR inh, COc1ccc(CCNC(=O)c2ccc(S(=O)(=O)N3CCCCC3)cc2)cc1 is entered as -10%
# VDR inh, C[C@H](CO)N1C[C@H](C)[C@@H](CN(C)S(=O)(=O)c2cn(C)cn2)Oc2c(NC(=O)Nc3ccc4c(c3)OCO4)cccc2C1=O is entered as -5%
# VDR inh, Cc1cc(=O)nc2c3ccccc3n(C(C)C(=O)Nc3cc(F)ccc3F)n12 (centres undefined) is entered as -1%
# VDR inh, Cc1ccc(Cl)cc1N1CCN(C(=O)CN2C(=O)COc3ccc(S(=O)(=O)N4CCCCCC4)cc32)CC1 is entered as 1%
# VDR inh, N=c1c(C(=O)NCCc2ccccc2)cc2c(=O)n3ccccc3nc2n1Cc1ccco1 is entered as -9%

# Some of the compounds tested; the hit share may differ from the screen's.
